Vaccinia Venus: qHTS for Stage-Specific Inhibitors of Vaccinia Orthopoxvirus: Venus Reporter Primary qHTS | Vaccinia virus Venus reporter expression, fluorescence | Potency, µM (series often up to 36.5 µM), inactives show top-dose activity change, negative = inhibition, actives largely listed as inhibitors | 330,000 compounds, 0.46% hits; active means well fitted inhibition curve with a large enough effect; inconclusive means small, poorly fitted or top-dose-only effect; inactive means no such curve, though single readings can be large or run the other way; tested in A549 cells; note: nearly all actives have a fitted effect of over 30% in size; inactives centre near -10
Vaccinia mCherry: qHTS for Stage-Specific Inhibitors of Vaccinia Orthopoxvirus: mCherry Reporter Primary qHTS; AID 720579, 2013; Potency, µM (top dose mostly 36.5 µM), for inactives: top-dose activity change, negative = inhibition, hits mostly inhibitors; Vaccinia virus mCherry reporter infection, fluorescence; about a quarter of the inactives have no number; 310,000 compounds, 0.63% hits; active = well fitted inhibition curve with a large enough effect; inconclusive = small, poorly fitted or top-dose-only effect; inactive = no such curve, though single readings can be large or run the other way; tested in A549 cells; note: nearly all actives have a fitted effect of over 35% in size; inactives centre near -10
Starred values were filed as active, the others as inactive; i = inactive; ? = inconclusive; · = no result given; [ ] = another dose, or the depositor's remark. % is set by controls: 0 for no effect and ±100 for the full control effect; potency is the fitted concentration of half-maximal effect.

Values in the order – Vaccinia Venus | Vaccinia mCherry
CCOC(=O)[C@]12CCCC=C1N(Cc1ccco1)C(=O)[C@H](CC(=O)NCC13CC4CC(CC(C4)C1)C3)C2
→ -15% | -7%
COc1ccc(-c2csc3ncnc(N4CCN(S(=O)(=O)c5ccc(C)cc5)CC4)c23)cc1
→ -15% | ?
CSc1ncccc1C(=O)N(C)CC(=O)Nc1cccc(F)c1
→ -4% | i
Cn1c(N)c(C#N)c(C#N)c1-c1ccccc1
→ ? | ·
CCCCNC(=O)C(NC(=O)c1cccnc1)C(=O)c1ccccc1 (configuration not stated)
→ 7% | 37%[activator]
Cc1cccc(N2CCN(C(=O)CN3C(=O)NC4(CCCCCC4)C3=O)CC2)c1C
→ -11% | -28%
COCCCNC(=O)C1CCC(Cn2c(=O)c3sccc3n(C)c2=O)CC1 (configuration not stated)
→ -1% | -11%
CCc1ccc(NC(=O)CSC2=Nc3ccccc3C3=NC(CC(=O)NCc4ccccc4)C(=O)N23)cc1 (configuration not stated)
→ -14% | -26%
CN(C)c1ccc(/C=C/c2c3ccccc3cc[n+]2[O-])cc1
→ 20% | -7%
CC[C@H](C)[C@H](NC(N)=O)C(=O)NNC(=O)c1ccc(COc2cccc3cccnc23)cc1
→ 0% | i
Cn1c(=O)oc2cc(S(=O)(=O)NCCC(=O)Nc3ccc(F)cc3F)ccc21
→ -4% | -8%
COc1ccc(-c2cn(Cc3ccc(C(=O)c4ccccc4)cc3)nn2)cc1
→ ? | ?
COC(=O)C1=C(c2ccc(F)cc2OCc2ccccc2)C[C@@H]2CC[C@H]1N2C(=O)NC(C)C
→ -5% | i
[O-]C1=N[N+](=C(c2ccccc2)c2ccccc2)C1
→ -2% | -2%
COCCCNC(=O)CN1C(=O)c2cccnc2Sc2ccccc21
→ -2% | 9%
CN(CCC#N)C(=O)COC(=O)c1c2c(nc3ccccc13)/C(=C/c1ccco1)CC2
→ -16% | -6%
COc1ccc(C2NCCn3cccc32)cc1 (configuration not stated)
→ -14% | i
O=C(CC1C(=O)NCCN1Cc1c(F)cccc1Cl)NCCCn1ccnc1 (configuration not stated)
→ -2% | i
CC1CCN(C(=O)COC(=O)C2CCN(S(=O)(=O)c3c(Cl)cccc3Cl)CC2)CC1
→ -17% | -18%
C/C(=C\C(=O)c1ccccc1)Nc1ccc2c(c1)OCO2
→ -1% | -21%
COc1ccc(C(=O)C2CCCN(Cc3cccn3-c3nccs3)C2)cc1F (configuration not stated)
→ -14% | -29%
O=c1[nH]nc(SCc2nnc(-c3cccc(Cl)c3)o2)n1C1CCCCC1
→ -17% | -25%
O=C(NC1CCCC1)C(C1CC1)n1c(-c2ccncc2)nc2ccccc21 (configuration not stated)
→ -7% | -5%
COc1ccc(C(=O)C[n+]2ccccc2C)cc1
→ -11% | -15%
Cc1ccc(F)cc1C(=O)N1CCCCC1c1cc(C(=O)NCc2ccccc2)no1 (configuration not stated)
→ -6% | 10%
CC(=O)c1ccc(NC(=O)c2noc3c2CCc2ccccc2-3)cc1
→ 3% | -2%
COC(=O)Cc1ccc(NC(=S)N2CCN(c3ccc(OC)cc3)CC2)cc1
→ -15% | ?
COc1cc(Cl)c(C)cc1NC(=O)CCCN1C(=O)CCC1=O
→ 7% | -3%
C=CCSc1nnc(CNC(=O)c2ccc(Cl)cc2)n1CC
→ -2% | -10%
CC(C)c1ccc(NC(=O)COc2ccccn2)cc1
→ -20% | -2%
CCOc1ccccc1C(=O)Nc1cc2c(cc1N1CCCCC1)n(C)c(=O)n2C
→ -11% | -24%
CC(C)NCC1CCc2cc(CO)c([N+](=O)[O-])cc2N1 (configuration not stated)
→ -9% | -13%
O=C(NCc1ccc(Cl)cc1)c1ccc(CSc2nc3ccncc3[nH]2)cc1
→ -10% | 4%
CN(C)Cc1cc(C(F)(F)F)ccc1C(O)(c1ccccc1)c1ccccc1
→ -20% | -21%
CCC1([N+](=O)[O-])COC(c2ccc(C)cc2)OC1 (configuration not stated)
→ 5% | -11%
Cc1ccc(OCc2cc(=O)n3cc(C)sc3n2)c(C)c1
→ -4% | -6%
CCOC(=O)COc1ccccc1/C=N\NC(=O)c1cc2c(ccc3ccccc32)o1
→ -21% | -19%
COc1cccc2cc(C(=O)N(Cc3ccccc3)CC3CCCO3)c(=O)oc12 (configuration not stated)
→ -7% | -11%
CN(C)CCN(Cc1ccccc1)C(=O)c1[nH]c(C(F)(F)F)nc1-c1ccccc1
→ 3% | 7%
CCOC(=O)C1CCN(C(=O)CSc2n[nH]c(-c3ccc(F)cc3)n2)CC1
→ -14% | -19%
Cc1ccc(C)n1-c1ncc(Br)cn1
→ -13% | i
COc1ccc(-n2c(CN3CCN(c4ccc(F)cc4)CC3)nc3ccc([N+](=O)[O-])cc3c2=O)c(OC)c1
→ 0% | -2%
Cc1nnc(NC(=O)c2ccco2)s1
→ 3% | -16%
Cc1ccccc1NC(=O)CCCSc1nc2ccccc2s1
→ -12% | -3%
CCCC(C)C(=O)Nc1ccc(NC(C)=O)cc1 (configuration not stated)
→ -16% | ·
CCNC(=O)c1ccc2c(c1)sc1nc(-c3cccc(OC)c3)cn12
→ -16% | -24%
CCCCCCCCCC(=O)OCC(O)CO (configuration not stated)
→ -10% | i
COc1cccc(NC(=O)CCc2c(C)nn(-c3ccc(N4CCOCC4)nn3)c2C)c1
→ -3% | -11%
Clc1ccccc1C1CC(c2ccccc2)=Nc2ccccc2N1 (configuration not stated)
→ 70%[activator] | ?
O=C(NN=Cc1c[nH]c2ccccc12)NN=Cc1c[nH]c2ccccc12
→ -27% | -30%
COC(=O)c1ccc(NC(=O)c2ccc3c(c2)C(=O)N(Cc2cccnc2)C3=O)cc1
→ -3% | i
CC1CN(C(=O)COc2ncnc3ccccc23)CC(C)O1 (configuration not stated)
→ -11% | -14%
O=C(NNC(=O)C1C2CCC(C2)C1C(=O)O)c1cccc(Cl)c1 (configuration not stated)
→ -10% | -25%
CNC(=O)C1Cc2c(-c3ccc4c(c3)OCO4)ccnc2O1 (configuration not stated)
→ -7% | i
COc1ccc(C(CNC(=O)c2oc3ccc(C)cc3c2C)N2CCOCC2)cc1 (configuration not stated)
→ -11% | -14%
Cc1c(C=O)n(C)n(-c2ccccc2)c1=O
→ 0% | -4%
COc1cc(C(=O)NCCC(=O)NC2CCC(C)CC2)cc(OC)c1OC (configuration not stated)
→ 29%[7.34 µM] | 19%[7.34 µM]
Cc1ccc(C(=O)Nc2c(C)n(C)n(-c3ccccc3)c2=O)cc1S(=O)(=O)N1CCCCC1
→ -9% | -19%
O=C(Nc1scc(-c2ccccc2)c1C(=O)O)c1ccccc1Cl
→ -11% | 1%
N#C/C(=C(\O)Cc1ccccc1)c1nc2ccccc2[nH]1
→ ? | ·

Other results follow.
Values in the order – Vaccinia Venus | Vaccinia mCherry
O=C(NCc1ccncc1)c1csc([C@@H]2O[C@H](CO)[C@@H](O)[C@H]2O)n1
→ 16% | -2%
Cc1ccc(S(=O)(=O)NCc2ccncc2)cc1
→ ? | -24%
COc1cc(OC)cc(C(=O)NCc2cccnc2)c1
→ -5% | ·
Cc1onc(-c2ccccc2Cl)c1C(=O)N1CCC(Cc2ccccc2)CC1
→ -15% | i
CC(C)CCN1CCN(Cc2ccc(C#CC(C)(C)O)s2)CC1CCO (configuration not stated)
→ -7% | -7%
CC(=O)Nc1ccc(S(=O)(=O)NC2=NCN(C(C)C)CN2)cc1
→ -9% | -8%
Cc1nccn1CC(O)COC1CCCCC1 (configuration not stated)
→ -7% | i
CC(=O)c1cc2c(cc1NS(=O)(=O)c1ccc3c(c1)OCCO3)OCO2
→ 0% | i
CCCNC(=O)c1ccc2c(c1)S(=O)(=O)c1ccccc1C2=O
→ -16% | -1%
COc1ccc2c(c1)c(=O)c(C(=O)c1ccc(Cl)cc1)cn2CC(=O)Nc1ccc2c(c1)OCO2
→ 4% | 1%
O=C(NCC1CCCO1)C1CCN(S(=O)(=O)c2cc(Cl)ccc2Cl)CC1 (configuration not stated)
→ -3% | 11%
CCCCNC(=O)C1CCC(CNS(=O)(=O)c2ccc(Cl)cc2)CC1 (configuration not stated)
→ -3% | 0%
CC1C(=O)N(Cc2cn(Cc3ccco3)nn2)CCS(=O)(=O)N1Cc1ccc(-c2ccc(Cl)c(Cl)c2)cc1 (configuration not stated)
→ -19% | i
CC(C)n1c(-c2ccco2)csc1=Nc1cccnc1
→ -29% | ?
O=C(Nc1cccc(Cl)c1)N1CCN(Cc2ccccc2)CC1
→ -19% | i
COc1cc(CN2CCNC(=O)C2CC(=O)N2CCCCO2)cc(OC)c1 (configuration not stated)
→ -8% | i
CCN1CCN(CCCNC(=O)Cn2c(-c3cccs3)cc3cc(Cl)ccc32)CC1
→ -10% | -12%
Cc1ccccc1C(=O)N1CCN(c2ccc([N+](=O)[O-])c(NCc3ccco3)c2)CC1
→ -30% | ?
CCOCCCNC(=O)c1c(NC(=O)Cc2coc3ccc(C)cc23)sc2c1CCC2
→ -11% | -13%
CCOC(=O)CCCNc1ccc([N+](=O)[O-])cc1[N+](=O)[O-]
→ -9% | -13%
CCC1Oc2ccccc2N(CC(=O)NCCc2ccc(OC)c(OC)c2)C1=O (configuration not stated)
→ -6% | -7%
CCC1CN(CCNC(=O)C(C)(C)O)Cc2cc(OC)ccc2O1 (configuration not stated)
→ 0% | -13%
CCn1cc(-c2ccnc3cc(C(=O)O)nn23)c(C)n1
→ -16% | -20%
COc1ccc(NC(=O)CSc2nc(-c3ccccc3)nc3cc(=O)[nH]n23)cc1
→ -5% | -14%
COc1cc(N(C)C)c(OC)cc1C=C1C=CC=C1
→ -19% | 8%
c1ccc(Cc2nnc3n2CCCCC3)cc1
→ -10% | ·
CCOc1ccc(CCN2C(=O)C(=O)N([C@@H](CC(C)C)CN3CCC[C@@H]3CN3C(=O)C(=O)NC[C@@H]3Cc3ccccc3)C[C@@H]2CC(C)C)cc1
→ 13µM* | -1%
CCc1cc2c(=O)n(C(C)C(=O)OC3CCCCC3)cnc2s1 (configuration not stated)
→ ? | ·
COc1ccccc1NC(=O)CSc1nc(N)c(C#N)cc1C#N
→ -1% | -16%
CC(C)c1[nH]nc2c1C(c1cccnc1)C(C#N)=C(N)O2 (configuration not stated)
→ -4% | -12%
Brc1csc2ncccc12
→ -10% | -12%
CC(C)n1c(N2CCN(C(=O)N3CCCCC3)CC2)nc2ccccc21
→ -12% | i
CN(C)c1cccc(C(=O)Nc2cccc(F)c2)c1
→ -13% | -4%
OC(CNCc1ccccc1)c1ccc(Cl)cc1 (configuration not stated)
→ -11% | -14%
CCCCN=C1CC(C)(C)CC(=O)/C1=C(/O)CCCN1C(=O)c2ccccc2C1=O
→ -22% | ?
Cc1ncc2c(c1CNS(=O)(=O)N(C)C)CCN(C(=O)c1[nH]c3ccc(Cl)cc3c1C)C2
→ -12% | -14%
Cc1cc2nc(CCl)cc(=O)n2[nH]1
→ 4% | -8%
CCCn1c(SCC(=O)N(C)C2CCS(=O)(=O)C2)nc2sc3c(c2c1=O)CCC3 (configuration not stated)
→ ? | ?
COc1ccc(-n2c(=O)[nH]cc(C(=O)Nc3ccc4c(c3)OCO4)c2=O)cc1OC
→ -7% | i
Cc1cc(Oc2cccc3c2S(=O)(=O)N(C2CCCC2)CC(COCc2ccccc2)O3)cc(C)c1C (configuration not stated)
→ -10% | -24%
Cc1c(C)n(C)c2ccc(C(=O)Nc3cccc4ccccc34)cc12
→ ? | ·
CC(=O)C(/C=N/c1cc(-c2ccc(C)cc2)nn1-c1ccccc1)=C(\C)O
→ -24% | -6%
COc1cccc(C2C(C#N)=C(N)Oc3cc(C)n(Cc4ccccn4)c(=O)c32)c1OC (configuration not stated)
→ -2% | ·
COc1ccc(OCCCC(=O)NNC(=O)c2ccncc2)cc1
→ ? | ?
CC1CN(C(=O)/C=C/c2ccc(SC(F)F)cc2)CC(C)O1 (configuration not stated)
→ -5% | -4%
CCN1CCN(CC(=O)Nc2cccc(C)c2C)C(=O)C1=O
→ -7% | i
CCOC(=O)C1(CCCc2ccccc2)CCN(Cc2cnc(C)s2)CC1
→ -13% | -24%

Screening results deposited in PubChem by National Center for Advancing Translational Sciences (NCATS).
